Anthrax LT inh – qHTS Assay for Anthrax Lethal Toxin Internalization. Potency, µM (highest dose often 40 µM), for the others: at the top dose activity change, negative = inhibition, most hits filed as inhibitors. Cells, anthrax lethal toxin internalization, FRET ratio (460/530). 70,000 compounds, 0.67% hits; active = well fitted falling ratio curve with the 530 nm signal flat; inconclusive = other ratio curves, or a change in one channel alone; inactive = flat curves in the ratio and both channels; the % refers to the ratio; further: on the % scale 0 is the no-effect control and ±100 the full control effect; nearly all actives have a fitted effect of over 50% in size; tested in ME-180 cells; beta-lactamase reporter
Prx2 Sm inh – Schistosoma Mansoni Peroxiredoxins (Prx2). Schistosoma mansoni peroxiredoxin 2 (Prx2). S. mansoni Prx2 activity coupled to TGR/GSH (TGR is thioredoxin glutathione reductase), NADPH fluorescence loss, qHTS; some inactives read as strong as hits. Potency, µM. 65,000 compounds, 0.07% hits; active means full or partial inhibition curve with a strong effect at the top dose; inconclusive means weaker partial or single-point curve; inactive means no accepted curve; further: series up to 57 µM; many of its hits are not listed in these tables
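Coupled assay in which S. mansoni TGR passes NADPH reducing equivalents via glutathione to Prx2, which reduces H2O2. Compounds were preincubated 15 min at room temperature with 25 nM TGR/50 nM Prx2 mix. Kinetic NADPH fluorescence loss (ex 365/em 450 nm) was monitored.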
* = called active by the depositor; ? = inconclusive; · = not tested or not shown; [ ] = another dose, or the depositor's remark. Potency means the concentration at half of the fitted maximal effect. Some of the compounds tested; the hit share may differ from the screen's.

SMILES	Anthrax LT inh	Prx2 Sm inh
NS(=O)(=O)c1ccc(NCc2c(F)cccc2Cl)cc1	·	>57
Cc1ccc(C#N)cc1	5%	·
COc1ccc(CNc2oc(C)nc2C#N)cc1	-6%	>57
CCn1c(SCC(=O)NCc2ccc3c(c2)OCO3)nnc1-c1c[nH]c2ccccc12	-15%	>57
O=C(c1cccc(F)c1)N1CCC2(CCCN(c3ccccn3)C2)CC1	6%	>57
Nc1ncnc2nc(-c3ccc(C[P+](c4ccccc4)(c4ccccc4)c4ccccc4)cc3)[nH]c12	-16%[8 µM]	>57
Cc1ccc(C)c(SCC(=O)OCC(=O)c2ccco2)c1	7%	>57
COCCCN1C(=O)C(O)=C(C(C)=O)C1c1ccccn1 (centres undefined)	-14%	>57
CC(C)(NCc1ccccc1Cl)C(=O)O	-11%	>57
COC(=O)Cn1c(=NC(=O)CSCC(=O)Nc2cc(C)on2)sc2ccccc21	4%	>57
Cn1c(=N)n(CC(O)c2ccco2)c2ccccc21 (centres undefined)	11%	>57
Cc1cc(C)nc(N2CCN(c3ncnc4c3oc3ccccc34)CC2)n1	5%	>57
Cn1c(C(=O)N2CCN(c3ccc(Cl)cc3)CC2)cc2c(=O)n(C)c3ccccc3c21	-25%	>57
COc1ccc2[nH]cc(CCNc3ncncc3-c3ccc(N(C)C)cc3)c2c1	?	>57
C[C@H](NC[C@H](O)CP(=O)(O)Cc1ccccc1)c1ccc(Cl)c(Cl)c1	-16%	>57
O=C(NCC1COc2ccccc2O1)c1ccccc1 (centres undefined)	-2%	>57
Cc1cc(C(=O)Cn2nnc3ccccc3c2=O)c(C)n1Cc1cccs1	21%	>57
Cc1cccc(-n2ccnc2SCC(=O)Nc2nccs2)c1C	19%	>57
CON(C)c1nc(OCCNC(=O)COc2ccc(Cl)cc2C)nc(N(C)C)n1	5%	·
Cc1ccc(-c2noc(C3CCCN(C(=O)c4c(F)cccc4F)C3)n2)cc1 (centres undefined)	?	>57
CCCCn1c(O)c(C(CC)=Nc2ccc(C(=O)O)cc2)c(=O)[nH]c1=O	-7%	·
OCCN1CN=C(Nc2nc3ccccc3s2)NC1	?	>57
CC1CCCN(S(=O)(=O)c2cccc(-c3cn4cccnc4n3)c2)C1 (centres undefined)	11%	>57
O=S(=O)(Nc1ncnc2c1oc1ccccc12)c1ccc(Cl)s1	-3%	>57
O=C1c2ccccc2C(=O)N1CCCCSc1nnc2ccccn12	2%	>57
(list continues)
SMILES	Anthrax LT inh	Prx2 Sm inh
O=C(Cn1cc2c(n1)CCCC2)N1CCOCC1	17%	>57
O=C(C1=C(O)C(=O)N(CCN2CCOCC2)C1c1cccs1)c1cc2ccccc2o1 (centres undefined)	·	>57
COCCNC(=O)C(c1ccncc1)N(C(=O)Cn1nnc2ccccc21)c1ccc(OC)cc1 (centres undefined)	0%	>57
O=c1oc(-c2cccs2)nc2sc3c(c12)CCCCC3	?	·
CC(=O)NC(CCS(C)(=O)=O)C(=O)Nc1cccc(Cl)c1Cl (centres undefined)	6%	>57
Fc1ccccc1N1CCN(C2CCN(Cc3c[nH]c4ccccc34)CC2)CC1	?	·
COc1ccc(-c2nc(C(N)=O)c3[nH]c(=O)n(-c4cccc(C)c4)c3n2)c(OC)c1	2%	>57
C=CCNc1nc(-c2ccccc2)nc(-n2ccnc2)n1	4%	>57
O=C(Nc1cccc2ccccc12)N1CCN(c2ccccc2)CC1	·	>57
O=C(Cn1cc(C(F)(F)F)ccc1=O)N1CCN(S(=O)(=O)c2ccccc2)CC1	-2%	>57
COc1ccc(C(=O)NC2CCCCC2)cc1S(=O)(=O)N1CCCC1	-5%	>57
CCOC(=O)N1CCN(S(=O)(=O)c2ccc(OC)c(Cl)c2Cl)CC1	-3%	>57
O=C(O)c1cccc(Nc2ncnc3ccccc23)c1	-3%	>57
CC(=O)C1=C(O)C(=O)N(CCc2c[nH]c3ccccc23)C1c1cccc(O)c1 (centres undefined)	-7%	>57
CC(c1nnc(Sc2nnnn2-c2ccccc2)n1-c1ccc(F)cc1)N(C)C (centres undefined)	5%	>57
CC(O)c1nc2ccccc2n1C/C=C/c1ccccc1 (centres undefined)	·	>57
Cc1sc2ncnc(OCC(=O)N3CCN(S(=O)(=O)c4ccccc4)CC3)c2c1C	-5%	>57
COC(=O)C1=C(C)OC(N)=C(C#N)C1c1cc(OC)c(OCC(N)=O)cc1Cl (centres undefined)	-7%	?
CCCC1(C(=O)OC)C=C2C(=C(C)C(=O)C2C)CN1 (centres undefined)	?	>57
CCCc1nc2ccccc2n2cc3c(=O)n(C)c(=O)n(C)c3c12	1%	>57
CCN(CC)S(=O)(=O)c1ccc(NS(=O)(=O)c2cccc(C)c2)cc1	13%	>57
Cc1cccn2c(=O)c3cc(C#N)c(=O)n(CCCN4CCOCC4)c3nc12	?	>57
COC(=O)c1ccc2nc(C(F)(F)F)[nH]c2c1	3%	>57
COS(C)(=O)=O	4%	·
Nc1nc(-c2ccco2)c(-c2ccco2)s1	?	>57

Another view of part of the listing above:
Compound,Anthrax LT inh,Prx2 Sm inh
NS(=O)(=O)c1ccc(NCc2c(F)cccc2Cl)cc1,·,>57
Cc1ccc(C#N)cc1,5%,·
COc1ccc(CNc2oc(C)nc2C#N)cc1,-6%,>57
CCn1c(SCC(=O)NCc2ccc3c(c2)OCO3)nnc1-c1c[nH]c2ccccc12,-15%,>57
O=C(c1cccc(F)c1)N1CCC2(CCCN(c3ccccn3)C2)CC1,6%,>57
Nc1ncnc2nc(-c3ccc(C[P+](c4ccccc4)(c4ccccc4)c4ccccc4)cc3)[nH]c12,-16%[8 µM],>57
Cc1ccc(C)c(SCC(=O)OCC(=O)c2ccco2)c1,7%,>57
COCCCN1C(=O)C(O)=C(C(C)=O)C1c1ccccn1 (centres undefined),-14%,>57
CC(C)(NCc1ccccc1Cl)C(=O)O,-11%,>57
COC(=O)Cn1c(=NC(=O)CSCC(=O)Nc2cc(C)on2)sc2ccccc21,4%,>57
Cn1c(=N)n(CC(O)c2ccco2)c2ccccc21 (centres undefined),11%,>57
Cc1cc(C)nc(N2CCN(c3ncnc4c3oc3ccccc34)CC2)n1,5%,>57
Cn1c(C(=O)N2CCN(c3ccc(Cl)cc3)CC2)cc2c(=O)n(C)c3ccccc3c21,-25%,>57
COc1ccc2[nH]cc(CCNc3ncncc3-c3ccc(N(C)C)cc3)c2c1,?,>57
C[C@H](NC[C@H](O)CP(=O)(O)Cc1ccccc1)c1ccc(Cl)c(Cl)c1,-16%,>57

More records
SMILES	Anthrax LT inh	Prx2 Sm inh
Cc1ccc(C)c(N(CC(=O)NCc2ccc3c(c2)OCO3)C(=O)CCC(=O)Nc2ccccn2)c1	?	>57
C[C@@H]1CC[C@H]2C(=O)N3[C@@H](CC[C@@H](C)[C@@H]3c3ccc(Br)cc3)C(=O)N2[C@@H]1c1ccc(Br)cc1	?	·
O=C(CN1CCN(CC(=O)Nc2ccccn2)CC1)Nc1ccccn1	-14%	>57
Cc1cc(NC(=O)C2CCCCC2)nc2c1c(=O)oc1ccccc12	-1%	>57
COc1ccc(NC(=O)CSc2nnc(-c3cccs3)n2C)cc1OC	-7%	>57
CCN1CCN(C(c2cccs2)C(C)NC(=O)CC(C)C)CC1 (centres undefined)	-16%	>57
Cc1c(O)cccc1C(=O)N[C@@H](CSc1ccccc1)[C@H](O)CN1C[C@H]2CCCC[C@H]2C[C@H]1C(=O)NC(C)(C)C	?	·
COc1ccc(NC(=O)C(CC(C)C)NC(=O)c2ccccc2C)cn1 (centres undefined)	-8%	>57
Cn1c(N2CCC(C(N)=O)CC2)nc2c1c(=O)n(Cc1ccc(Cl)cc1)c(=O)n2C	8%	>57
CCCCC(NC(C)=O)c1nc2ccccc2[nH]1 (centres undefined)	3%	>57
COc1ccc2[nH]c(=O)c(CN(CCO)C(=O)c3ccccc3F)cc2c1	1%	>57
Cc1ccc(OCCNC(=O)c2ccccc2N)cc1	12%	>57
Cc1sc(C(=O)NCc2cccnc2)c2nc(C)n(CC(=O)NCc3cccnc3)c(=O)c12	-6%	>57
COc1ccc(-c2cn[nH]c2N)c(OC)c1	4%	>57
COC(=O)CCCCCc1ccc(C(C)=O)s1	-10%	·
O=C(Nc1ccc(F)cc1F)c1cc2n(n1)C(C(F)(F)F)C1CCCCC1N2 (centres undefined)	6%	>57
OC[C@@H]1O[C@@H](n2cnc3c(NC4CCCCC4)ncnc32)[C@@H](O)[C@H]1O	?	>57
CSCC[C@H](NC(=O)NCc1ccccc1F)C(=O)O	12%	>57
CCOC(=O)c1[nH]c(C)c(/C(O)=C2\C(=O)C(=O)N(CCN(C)C)C2c2ccc(C)o2)c1C (centres undefined)	-11%	>57
CC(C)C[C@H](NC(=O)NCc1ccccc1Cl)C(=O)O	3%	>57
CCOc1ccc(CCNC(=O)CN2CCN(Cc3ccccc3C)C2=O)cc1OCC	-4%	>57
CCOCCCNC(=O)c1ccccc1SC	9%	>57
COc1cc(S(=O)(=O)N(Cc2ccc(C)cc2)C2CCCCC2)ccc1-n1cnnn1	?	>57
CCOC(=O)C1=C(N)Oc2cc(C)oc(=O)c2C1c1cccnc1 (centres undefined)	·	>57
Fc1ccc(CSc2ncnc3nc[nH]c23)cc1	0%	>57
Carrying on.
SMILES	Anthrax LT inh	Prx2 Sm inh
FC(F)(F)c1ccccc1-c1nccc(N2CCNCC2)n1	14%	>57
CC(C)(C)n1nnnc1C(c1cccs1)N1CCCc2ccccc21 (centres undefined)	-19%	>57
O=C1c2ccccc2C(Nc2ccc3c(c2)OCCO3)N1c1ccccn1 (centres undefined)	?	>57
CC(C)NC(=O)c1nc2ccccc2s1	·	>57
COCCN(CCOC)Cc1c(O)ccc2c3c(c(=O)oc12)CCC3	?	·
CCCCOc1ccc(S(=O)(=O)N2CCCCCC2)cc1	?	>57
CCOC(=O)c1[nH]c(C)c(/C(O)=C2\C(=O)C(=O)N(CCCn3ccnc3)C2c2ccncc2)c1C (centres undefined)	11%	>57
Cc1nnc(NC(=O)c2ccccc2Br)s1	?	>57
Cc1nc2ccccn2c1/C(O)=C1\C(=O)C(=O)N(CCCn2ccnc2)C1c1ccncc1 (centres undefined)	·	>57
O=C(O)C1CC(=O)N(c2ccc(OCc3c(F)cccc3Cl)cc2)C1 (centres undefined)	-1%	>57
CCOC(=O)c1sc(=S)n(-c2ccccc2OC)c1N	?	>57
Cc1cc(C)c2cc(C#N)c(SCC(=O)NCC3CCCO3)nc2c1 (centres undefined)	-9%	>57
Cc1occc1C(=O)NCc1ccccc1F	10%	>57
O=C(CC1CCCCC1)NCc1ccccn1	?	>57
CCOC(=O)c1[nH]c(C)c(C(=O)NC(C)(C)C)c1C	-3%	>57
CCOc1ccc2[nH]c(=O)c(CN(CCO)C(c3nnnn3C3CCCCC3)C(C)C)cc2c1 (centres undefined)	1%	>57
O=C(c1c[nH]c2ccccc12)C(O)C(c1ccccc1)N1CCOCC1 (centres undefined)	-3%	>57
CCOC(=O)N1CCc2c(sc(NC(=O)c3ccc(S(=O)(=O)N4CCCC4)cc3)c2C#N)C1	-16%	>57
Cc1nc2c(C)cccn2c1/C(O)=C1\C(=O)C(=O)N(CCN2CCOCC2)C1c1ccncc1 (centres undefined)	·	>57
N#Cc1ccc2ccn(CC(=O)NCc3ccccc3)c2c1	?	>57
NC(=NCc1ccc(Cl)cc1)SCCCc1cnc[nH]1	?	>57
Cc1ccc(-c2nc(CS(=O)(=O)CC(=O)N3CC(C)CC(C)C3)c(C)o2)cc1 (centres undefined)	1%	>57
CC(=O)N1CCCc2cc(S(=O)(=O)N3CCc4ccccc4C3)ccc21	9%	>57
COc1ccc(NS(=O)(=O)c2ccc(Oc3ncccn3)cc2)cc1	6%	>57
CS(=O)(=O)N1CCN(c2ccccc2F)CC1	2%	>57
(list continues)
SMILES	Anthrax LT inh	Prx2 Sm inh
O=C(O)CNC(=O)[C@H]1NC(C(F)(F)F)(C(F)(F)F)OC1(C(F)(F)F)C(F)(F)F	3%[8 µM]	>57
CN1CCN(C(=O)c2ccc(S(=O)(=O)c3ccc(Br)cc3)cc2)CC1	11%	>57
COCCOC(=O)c1[nH]c2c(c1C)C(=O)CC(c1cc(OC)ccc1OC)C2 (centres undefined)	3%	>57
Cc1cc(C)c2c(=O)c3c(oc2c1)C(=O)N(CCO)C3c1cccc(O)c1 (centres undefined)	0%	>57
CC(OC(=O)c1cccs1)C(=O)NCc1ccco1 (centres undefined)	11%	>57
Cc1ccc(N2CCN(c3ccc(C)cc3)C2c2ccccn2)cc1	-11%	>57
N#Cc1cccc(-c2nnc(SCc3ccccc3C#N)o2)c1	-6%	>57
COc1ccc2sc(N3C(=O)C4CC=C(C)CC4C3=O)nc2c1 (centres undefined)	5%	>57
CCc1c(C(=O)NC2CCCC2)csc1C	12%	>57
COC(=O)C/C=C\[C@@H](C)[C@@H](/C=N\OCC[C@@H]1C=C[C@H](OC(C)=O)[C@H](COC(C)=O)O1)OC	-4%[1.6 µM]	·
COCC(C)NC(=O)C1CC(c2cccc(Br)c2)=NO1 (centres undefined)	-17%	>57
COc1ccc(C(CC(=O)O)NC(C)=O)cc1OC (centres undefined)	6%	>57
c1cc(C2OCCN2CC2COC3(CCCC3)O2)ccn1 (centres undefined)	-5%	>57
COC(=O)Cc1[nH]nc2c1C1(C(=O)N(Cc3ccc(Cl)cc3)c3ccccc31)C(C#N)=C(N)O2 (centres undefined)	?	>57

Looked up above:
Anthrax LT inh with `N#Cc1cccc(-c2nnc(SCc3ccccc3C#N)o2)c1` = -6%
Anthrax LT inh with `Cc1cc(C)c2c(=O)c3c(oc2c1)C(=O)N(CCO)C3c1cccc(O)c1` (centres undefined) = 0%
